# Screening results from PubChem.
# VDR inh: inhibitors of human vitamin D receptor. P11473. VDR-SRC2-3 peptide fluorescence polarization, 2 h. Potency, µM, for inactives: max response, negative = inhibition, usual class: inhibitors. 0.93% of 400,000 active; active means well fitted inhibition curve with a large enough effect; inconclusive means small, poorly fitted or top-dose-only effect, or another doubt; inactive means no such curve, though single readings can be large or run the other way; further: series mostly up to about 120 µM
# Target sequence (P11473 whole entry, looked up): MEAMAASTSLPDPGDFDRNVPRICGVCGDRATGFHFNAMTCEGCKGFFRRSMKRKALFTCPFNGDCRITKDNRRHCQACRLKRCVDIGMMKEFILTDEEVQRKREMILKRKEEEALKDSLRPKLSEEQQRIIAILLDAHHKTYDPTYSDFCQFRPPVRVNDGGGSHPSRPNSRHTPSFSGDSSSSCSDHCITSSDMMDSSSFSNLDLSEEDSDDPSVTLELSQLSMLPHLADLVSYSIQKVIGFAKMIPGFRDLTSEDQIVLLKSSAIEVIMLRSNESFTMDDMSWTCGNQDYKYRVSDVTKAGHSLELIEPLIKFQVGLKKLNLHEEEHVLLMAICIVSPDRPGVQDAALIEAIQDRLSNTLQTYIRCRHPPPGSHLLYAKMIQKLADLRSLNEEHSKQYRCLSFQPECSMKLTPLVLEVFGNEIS
#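 The screen uses fluorescence polarization to detect compounds that interfere with recruitment of the SRC2-3 coactivator peptide to VDR; plates are read after 2 h at room temperature.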
# * hit, by the source's call; u = inconclusive; & = joins results of further samples. On the % scale 0 is the no-effect control and ±100 the full control effect; potency means the concentration at half of the fitted maximal effect. The list is partial, so the mix of outcomes need not match the whole.
SMILES,VDR inh
Cc1ccc(C(=O)NCC(=O)N/N=C/c2sccc2C)cc1[N+](=O)[O-],14%
Cc1ccc(C)c(N2CCN(C(=O)c3ccc(Cn4c(=S)[nH]c5ccc(N6CCOCC6)cc5c4=O)cc3)CC2)c1,-21%
CCC(C(=O)OC)n1cnc2c(nnn2-c2ccc(OC)cc2)c1=O (centres undefined),-16%
CC(=O)Nc1ccc(NC(=O)C(F)(F)F)cc1,17%
S=C1NC2(CCCCC2)Nc2ccccc21,-5%
O=C(NCC(=O)N1CCN(C(=O)c2ccco2)CC1)c1ccc(Cl)cc1,1%
COc1ccc(CCNC(=O)CSc2nnnn2-c2cccc(C(C)=O)c2)cc1OC,-7%
CCOC(=O)C1C(=O)C=C(/C=C/c2ccccc2)CC1c1ccc(Cl)cc1 (centres undefined),-5%
CCN(CC)c1ccc(/C=N/NC(=O)Cc2nnc(NC(=O)Nc3ccccc3)s2)cc1,5%
CC(C)(C)c1ccc(C2(C)NC(=O)NC2=O)cc1 (centres undefined),8%
COC(=O)[C@@]12CCCN1[C@H](c1ccc(-c3ccccc3)cc1)[C@@H]1C(=O)N(C)C(=O)[C@@H]12,-7%
CCCn1c(SCC(=O)N(C)CC(=O)Nc2ccc(C)cc2)n[nH]c1=O,6%
CSc1ccc(CN(C)C(=O)c2cc(=O)c3ccccc3o2)cc1,13%
O=C(CSc1nnc(-c2ccncc2)n1Cc1ccccc1)NC1CCCc2ccccc21 (centres undefined),-4%
CCCN(C(=O)CSc1nc2ccccc2n1CC)C1CCS(=O)(=O)C1 (centres undefined),-10%
CCSc1nnc(-c2ccc(S(=O)(=O)N3CCOCC3)cc2)n1CC1CCCO1 (centres undefined),-10%
CCOc1ccc(OCCN(C)Cc2ccccc2)cc1,-20%
CCOC(=O)Nc1ccc(NC(=O)c2c(OC)cccc2OC)cc1,-3%
CCOC(=O)Cc1c(C)nc2c(-c3ccccc3)cnn2c1C,-6%
CSc1ccccc1NC(=O)c1ccc(CN2CCOCC2)cc1,-4%
CC1CCN(C2=C(NS(=O)(=O)c3ccccc3)C(=O)c3ccccc3C2=O)CC1,0%
COC(=O)C1C(=O)c2c([nH]c(C(=O)OCCSC)c2C)CC1C (centres undefined),-17%
S=c1[nH]nc(COc2ccc(Cl)cc2)n1C1CCCCC1,-7%
CCOc1ccc(N2C(=O)CC(Sc3nc(CC(C)C)ccc3C#N)C2=O)cc1 (centres undefined),-12%
CCOc1ccc(CCNC(=O)COC(=O)c2ccc(OC)c(OC)c2OC)cc1OCC,-8%
O=Cc1ccc(N2CCCC2)c(F)c1,14%
CN(C)c1ccc(/C=C(/NC(=O)c2ccccc2)C(=O)N2CCCC2)cc1,-25%
COc1nc(-c2ccccc2)ccc1-c1noc(-c2ccccc2F)n1,22%
COc1ccc(OC)c(Cc2nnc(CCC(=O)N3CCCCCC3)o2)c1,-3%
CC1CCN(Cc2ccc(-c3nnn(CC(=O)Nc4ccccc4Cl)n3)cc2)CC1,21%
NC(=S)COc1ccccc1,-20%
COc1ccc(N(C)S(=O)(=O)c2cccc(C(=O)NC3CCCC(C)C3C)c2)cc1 (centres undefined),8%
Cc1ccc(NC(=O)C2(N3CCC3=O)CCCCC2)cc1,0%
CCN(CC(=O)Nc1cccc(Br)c1)Cc1nc2ccccc2c(=O)[nH]1,5%
COc1ccc(/C=C/c2c([N+](=O)[O-])c(=O)n(C)c(=O)n2C)cc1OC,4%
CCOC(=O)N1CCC(NC(=O)c2ccc3c(c2)N(Cc2cc(C)ccc2C)C(=O)c2ccccc2S3(=O)=O)CC1,-4%
C[C@@H]1C(c2cccc(Cl)c2)=NN(c2ccc(Br)cc2)[C@H]1C(=O)N1CCOC1=O,-2%&-1%
COc1cc(NC(=O)NCCn2nnc3cc(S(=O)(=O)N(C)C)ccc32)cc(OC)c1OC,6%
COc1ccc2c(c1)CCC/C2=N\OC(=O)c1ccccc1F,5%
Cc1sc2ncnc(N3CCC(C(=O)NNC(=O)COc4ccc(Br)cc4)CC3)c2c1C,7%
CCC(NC(=O)NC1=NCCS1)(C(F)(F)F)C(F)(F)F,10%
Cc1cccc(N2CCN(C(=O)Cn3c(=O)c4cccn4c4ccc(F)cc43)CC2C)c1 (centres undefined),7%
COc1cc(NC(=O)c2ccc(NC3=NC4CS(=O)(=O)CC4S3)cc2)cc(OC)c1OC (centres undefined),3%
CN(CCOc1ccccc1)C(=O)CNC(=O)c1ccc(C(C)(C)C)cc1,6%
CCOc1ccc(-n2c(SCC(=O)NCc3ccco3)nc3c(c2=O)SCC3)cc1,-17%
CC(C)c1ccc(C(CC(=O)O)N2Cc3ccccc3C2=O)cc1 (centres undefined),-7%
COc1ccc(Cl)cc1S(=O)(=O)Nc1ncn[nH]1,-9%
Fc1ccc(-n2nnnc2-c2cnc(-c3cccs3)nc2C(F)(F)F)cc1,-9%
Cc1coc2cc3oc(=O)c(CCC(=O)NC4CC4)c(C)c3cc12,8%
C1=Nc2c(NCc3ccccc3)ncnc2Oc2ccccc21,-8%
# Further results
SMILES,VDR inh
O=c1oc2c(CN3CCN(CCO)CC3)c(O)ccc2cc1-c1ccccc1,0%
CC(C)C(NC(=O)C1CCCCC1)C(=O)NC1CCCC(C)C1C (centres undefined),-4%
Cc1sc2ncnc(SCc3ccco3)c2c1C,-5%
Cc1ccc(-n2nc3c(=O)n(CCCC(=O)NCc4ccc(F)cc4)nc(C)c3c2C)cc1,-7%&-1%
CCCNC(=O)CN1C(=O)NC(Cc2c[nH]c3ccccc23)C1=O (centres undefined),u
Cc1sc2nc(-c3ccccc3)oc(=O)c2c1C,15%
C=CCn1c(SCC(=O)c2c(N)n(C)c(=O)n(C)c2=O)nnc1-c1ccoc1C,-22%
CCCCc1c(O)nc(SCC(=O)N2CCOCC2)n(-c2ccccc2OC)c1=O,-2%
Cc1cc(N/N=C/c2c(O)ccc3ccccc23)nc(-c2ccccc2O)n1,-17%
Cc1ccccc1-c1nc2sc3c(c2c(=O)n1N)CCCC3,-11%
Cc1ccc(C=NNc2nc3c([nH]2)c(=O)n(C)c(=O)n3C)cc1,5%
Cc1n[nH]c(C)c1CCN(C)Cc1cn(C)nc1-c1ccccc1F,-12%
CCn1c(-c2cc(-c3cccc(OC)c3)nc3ccccc23)n[nH]c1=S,1%
O=C(COc1ccc([N+](=O)[O-])cc1)Nc1ccc(N2CCN(C(=O)c3ccco3)CC2)cc1,-8%
C=CCOc1cccc(C2/C(=C(/O)c3ccccc3)C(=O)C(=O)N2CCN2CCOCC2)c1 (centres undefined),-8%
O=C(c1ccco1)N1CCN(S(=O)(=O)c2ccc(F)cc2)CC1,5%
O=C(NNC(=S)NCc1ccccc1)c1ccc2c(c1)OCO2,-9%
Cc1cc(C(F)F)nn1CC(=O)NCc1ccc(Cl)cc1Cl,-6%
CCOC(=O)c1cnc2nc(C(F)(F)F)[nH]n2c1=O,3%
Cc1nn(C(C)CC(=O)O)c(C)c1Br (centres undefined),14%

# Compounds listed so far with a CF3 group:
SMILES,VDR inh
CC(=O)Nc1ccc(NC(=O)C(F)(F)F)cc1,17%
CCC(NC(=O)NC1=NCCS1)(C(F)(F)F)C(F)(F)F,10%
Fc1ccc(-n2nnnc2-c2cnc(-c3cccs3)nc2C(F)(F)F)cc1,-9%
CCOC(=O)c1cnc2nc(C(F)(F)F)[nH]n2c1=O,3%

# (further entries)
SMILES,VDR inh
CNC(=O)NC(=O)CSc1nnc(-c2ccc(F)cc2)n1CC1CCCO1 (centres undefined),12%
C=CCc1cccc(/C=N/c2ncccc2O)c1O,-8%
CC1=CC2=NC(=O)/C(=C\c3ccc(OC(=O)c4ccco4)cc3)C(=N)N2O1,-3%
Cc1cc(C)cc(Nc2nc3cc(Cl)c(Cl)cc3nc2-n2nc(C)cc2C)c1,-7%
CCCCCCC(=O)N(O)C1CC(=O)N(c2ccc(C)cc2)C1=O (centres undefined),32µM*
Cc1cc(N2CCN(C(=O)c3ccco3)CC2)n2nc(-c3cccc(Cl)c3)cc2n1,-6%
CC(C)NC(=O)CC(c1ccccc1)c1cc(Br)ccc1O (centres undefined),-16%
CC(C)CCCCCCCCCCCCC(=O)NCC(=O)NC1C(C)OC(Nc2ncnc3nc[nH]c23)C(O)C1O (centres undefined),-17%
NN(Cc1ccccc1)C(=S)Nc1ccc(Cl)c(Cl)c1,30%
O=C(Nc1cc(C(=O)N2CCCC2)ccc1N1CCCC1)C1CC1,10%
CCOC(=O)c1cnn(CCOC(=O)C(C)(C)C)c1NC(=O)C(C)(C)C,3%
O=C(Nc1ccc(F)cc1)c1ccc(S(=O)(=O)NCc2cccnc2)cc1,8%
CCOC(=O)c1nn(-c2cccc(Cl)c2)c(C)c1C(C)=O,2%
COC(=O)COc1ccc(S(=O)(=O)N2CCCCCC2)cc1C,-22%
N#C/C(C(=O)N1CCCCC1)=C1/N=C(N)c2ccccc21,-7%
Cc1ccc(-c2noc(CNS(=O)(=O)c3ccccc3)n2)cc1,11%
O=C1CC(N2CCOCC2)C(=O)N1Cc1ccc(N2CCCC2=O)cc1 (centres undefined),0%
CCN(CC(=O)Nc1cc(Cl)ccc1-n1cncn1)Cc1nc2ccccc2c(=O)[nH]1,-20%
O=C1c2cccc3cccc(c23)C(=O)N1Cc1cccnc1,5%
CN(C)S(=O)(=O)c1ccc(/C(O)=C2/C(=O)C(=O)N(CCCN3CCOCC3)C2c2ccncc2)cc1 (centres undefined),-3%
COc1ccc(Br)cc1CNC(=O)C1CCCN(S(C)(=O)=O)C1 (centres undefined),1%
CCN(CC)c1ccc2cc(-c3nc(-c4cc(OC)c(OC)c(OC)c4)no3)c(=O)oc2c1,-6%
O=C(NCc1ccccc1Cl)c1cccc(C(F)(F)F)c1,-9%
CCc1ccccc1NC(=O)CSc1nc2n[nH]c(C)c2c(=N)n1-c1cccc(C)c1,1%
CCCCC(=O)Nc1ccc(C(=O)OCc2cc(=O)n3nc(C4CC4)sc3n2)cc1,0%
COc1cccc(C(=O)Nc2nnc(-c3ccccc3)s2)c1OC,-11%
CC1CCN(C(=O)COC(=O)[C@H](C)NS(=O)(=O)/C=C/c2ccccc2)CC1,4%
Cc1ccc(C(C)(C)C)cc1S(=O)(=O)NC(=O)c1ccccc1,-3%
Cc1c(C(=O)N2CC(C)OC(C)C2)sc2nc(-c3ccc(F)cc3)cn12 (centres undefined),u
CSCC[C@H](NC(=O)C1CCCC1)c1nc2ccccc2[nH]1,-20%
Cc1ccc(C)c(-n2c(Cc3cc(=O)[nH]c(=O)[nH]3)nnc2SCC(=O)NCC2CCCO2)c1 (centres undefined),9%
CC(C)(C)C(=O)NCCn1ccc2ccccc21,4%
COc1ccc(-c2ccc(C3C4C=CCC(C)C4C(=O)N3Cc3ccccc3)c(F)c2)cc1OC (centres undefined),7%
C=CCn1c(SCC(=O)NC2(C#N)CCCCC2)nnc1-c1ccncc1,-5%
CN(C)CCC=C1c2ccccc2CCc2ccccc21,-2%&-14%&-2%&5%
Cc1sc2ncnc(OCC(=O)NCc3cccs3)c2c1C,-9%
CCS(=O)(=O)N1CCc2cc(C(=O)NCCc3ccc(OC)cc3)ccc21,11%
O=C(OCc1cc(=O)n2ccsc2n1)c1ccccc1NCCO,8%
Cc1ccccc1NC(=O)CSc1[nH]c(=O)cc(C)c1C#N,-6%
COc1cc(-c2cn[nH]c2N)cc(OC)c1OC,-9%
c1cc2c3c(cccc3c1)NC1(CCC3(CC1)Nc1cccc4cccc(c14)N3)N2,1%
O=C1c2ccccc2C(=O)C12OC2c1cccc2ccccc12 (centres undefined),13µM*
Cc1ccc(C(=O)Nc2ccc(F)cc2)cc1S(=O)(=O)N1CCCCCC1,-1%
COc1ccc2ccccc2c1/C=N/NC(=O)c1nnn(-c2nonc2N)c1C(C)C,-3%
CCC(C)c1ccccc1NC(=O)COC(=O)c1ccc2[nH]c3c(c2c1)CCCC3 (centres undefined),0%
CC(=O)NS(=O)(=O)c1ccc(N=NN2CCOCC2)cc1,5%
CC(=O)c1c(C(C)=O)c(C)n(NC(=O)c2ccc(Cl)cc2)c1C,10%
CC1CCCC(=C\c2ccccc2)/C1=N/O (centres undefined),u
Nc1ccc2ccccc2c1C(=O)c1ccccc1,-7%
CCOC(=O)CCCn1c(C)nc(=O)c(-c2ccccc2)c1C,-7%
COc1cccc2c1C(=O)c1c(O)c3c(c(O)c1C2=O)C[C@@](O)(C(=O)CO)C[C@@H]3O[C@H]1C[C@H](N)[C@H](OC2CCCCO2)[C@H](C)O1 (some centres undefined),-7%

# Gathered by group, the entries above containing an aryl thioether with sulfur outside any ring
SMILES,VDR inh
COc1ccc(CCNC(=O)CSc2nnnn2-c2cccc(C(C)=O)c2)cc1OC,-7%
CCCn1c(SCC(=O)N(C)CC(=O)Nc2ccc(C)cc2)n[nH]c1=O,6%
CSc1ccc(CN(C)C(=O)c2cc(=O)c3ccccc3o2)cc1,13%
O=C(CSc1nnc(-c2ccncc2)n1Cc1ccccc1)NC1CCCc2ccccc21 (centres undefined),-4%
CCCN(C(=O)CSc1nc2ccccc2n1CC)C1CCS(=O)(=O)C1 (centres undefined),-10%
CCSc1nnc(-c2ccc(S(=O)(=O)N3CCOCC3)cc2)n1CC1CCCO1 (centres undefined),-10%
CSc1ccccc1NC(=O)c1ccc(CN2CCOCC2)cc1,-4%
CCOc1ccc(N2C(=O)CC(Sc3nc(CC(C)C)ccc3C#N)C2=O)cc1 (centres undefined),-12%
CCOc1ccc(-n2c(SCC(=O)NCc3ccco3)nc3c(c2=O)SCC3)cc1,-17%
Cc1sc2ncnc(SCc3ccco3)c2c1C,-5%
C=CCn1c(SCC(=O)c2c(N)n(C)c(=O)n(C)c2=O)nnc1-c1ccoc1C,-22%
CCCCc1c(O)nc(SCC(=O)N2CCOCC2)n(-c2ccccc2OC)c1=O,-2%
CNC(=O)NC(=O)CSc1nnc(-c2ccc(F)cc2)n1CC1CCCO1 (centres undefined),12%
CCc1ccccc1NC(=O)CSc1nc2n[nH]c(C)c2c(=N)n1-c1cccc(C)c1,1%
Cc1ccc(C)c(-n2c(Cc3cc(=O)[nH]c(=O)[nH]3)nnc2SCC(=O)NCC2CCCO2)c1 (centres undefined),9%
C=CCn1c(SCC(=O)NC2(C#N)CCCCC2)nnc1-c1ccncc1,-5%
Cc1ccccc1NC(=O)CSc1[nH]c(=O)cc(C)c1C#N,-6%
